# Beta cell apopt: inhibitors of cytokine-induced beta cell apoptosis, primary screen, luminescence; INS-1E cytokine-induced death, ATP luminescence, 48 h; percent of positive-control rescue, neutral wells zero; protection from apoptosis, % (test concentration not listed); 300,000 compounds, 0.8% hits;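 active = all replicates at 75% or more, or half of them and the mean; inconclusive = half reach 75% but not the mean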;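 also: 0% = cytokine-treated negative control wells and 100% = positive control rescue; higher means more ATP so stronger rescue from cytokine killing; wells of about 40 µL received 100 nL stock; the first replicate is given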
# MLL AF4-AF9 inh: inhibitors of AF4 peptide binding to AF9, primary screen, biochemical, AlphaScreen, biotin-AF4 peptide, FLAG-AF9, single point; inhibition, % at 10 µM; 350,000 compounds, 0.47% hits; AID 651704, 2012;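 active = every replicate reaching a set inhibition limit, whatever the replicate mean, cut at about 25% in these data; inconclusive = mean inhibition reaches that limit but some replicates miss it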;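 also: 0% = plate neutral control median and 100% = total signal loss; the record names both 10 and 1 µM as test concentration; the first replicate is given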
# Target sequence (P42568 whole entry, looked up): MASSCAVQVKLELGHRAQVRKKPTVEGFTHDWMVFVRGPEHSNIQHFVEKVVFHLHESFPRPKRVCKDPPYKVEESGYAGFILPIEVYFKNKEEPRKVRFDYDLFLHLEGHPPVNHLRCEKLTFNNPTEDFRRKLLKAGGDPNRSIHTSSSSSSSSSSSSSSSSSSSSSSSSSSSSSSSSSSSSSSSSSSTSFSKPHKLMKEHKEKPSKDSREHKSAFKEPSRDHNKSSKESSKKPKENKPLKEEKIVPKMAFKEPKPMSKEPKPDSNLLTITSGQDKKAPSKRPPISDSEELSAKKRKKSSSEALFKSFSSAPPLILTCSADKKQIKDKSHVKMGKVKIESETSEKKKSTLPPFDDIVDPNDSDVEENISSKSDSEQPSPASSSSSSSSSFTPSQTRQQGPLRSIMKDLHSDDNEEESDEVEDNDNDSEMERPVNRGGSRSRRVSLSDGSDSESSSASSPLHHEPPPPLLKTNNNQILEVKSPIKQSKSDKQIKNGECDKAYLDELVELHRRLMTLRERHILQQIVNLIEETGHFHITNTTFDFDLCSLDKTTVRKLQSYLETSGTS
# T cruzi inh: inhibitors of intracellular T. cruzi growth, primary screen, luminescence, NIH3T3 host cells | T. cruzi beta-gal in NIH3T3, 90 h | inhibition, % (test concentration not listed) | 300,000 compounds, 1.4% hits;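 active = mean inhibition across valid replicates above about 55%, limit read from the data; inconclusive = mean below that limit but half or more replicates reach it; inactive = mean below it, under half of replicates reach it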;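 also: signal also drops with host cell toxicity which is not excluded here; 0% = plate median of DMSO wells and 100% = zero luminescence signal; higher percent means less beta-gal luminescence so fewer parasites; stock transfer was 50 nL into about 50 µL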
# Bfl-1 A1 inh: caspase 3/7 activation in MEF A1-2A-BIM cells, primary screen, A1 inhibitor project, cell-based, luminescence, HTS | Caspase-Glo 3/7 luminescence, 3 h; percent of clofoctol response, vehicle zero | caspase activation, % (concentration not given with the values) | AID 2462, 2010 | 330,000 compounds, 0.066% hits;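 active = over half of replicate activation scores above 10%, or exactly half above 10 with the replicate mean above 10; inconclusive = replicate mean below 10 yet half the replicates above 10; inactive = over half of replicates below 10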;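 also: wells of about 30 µL received 50 nL stock; many hits fall short of the cut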
# Calb FLC: C. albicans growth inhibition with fluconazole, primary screen, CaCi-2 strain, Alamar Blue fluorescence. AID 1979, 2009. 300,000 compounds, 0.57% hits. growth inhibition, % (test concentration not listed). C. albicans CaCi-2 (fluconazole-resistant clinical isolate) + fluconazole, 48 h;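 active = most replicates above 75%; inconclusive = exactly half above 75%; inactive = most below 75%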;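 also: all wells also contain fluconazole at 8 µg/ml as a sub-toxic cotreatment; 0% = median of DMSO wells and 100% = median of geldanamycin control wells; wells of about 8 µL received 7.5 nL stock; the first replicate is given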
# Vif TR-FRET: inhibitors of Vif binding to APOBEC3G peptide, primary screen, biochemical, TR-FRET, GST-Vif 1-94, biotin-A3G peptide, dose response retest (AID 1117319); Virion infectivity factor (Human immunodeficiency virus type 1 group M subtype B (isolate …; TR-FRET GST-Vif / biotin-A3G peptide binding; higher % means a stronger effect; test concentration not given here; strong numbers were not always called active; inhibition, %; hits with a dose series show IC50 in µM; 260,000 compounds, 0.57% hits;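 active = above the screen mean plus three standard deviations and confirmed in dose response; inconclusive = results disagree or hit not tested in dose response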;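 also: Vif residues 1-94 fused to GST binding biotinylated APOBEC3G peptide 110-148; 0% = full assay without inhibitor and 100% = GST in place of GST-Vif; retest series ran down from 100 µM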
# RanGTP-Impb inh: inhibitors of RanGTP-importin-beta interaction, primary screen, biochemical, FRET, CFP-Ran, YFP-importin-beta, homogeneous; cell-free CFP-Ran/YFP-importin-beta FRET ratio; Ran GTPase (GTP-bound) - importin-beta complex; inhibition, % (no concentration beside the values); 300,000 compounds, 1.1% hits; AID 2216, 2009;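 active = most replicates above 15%; inconclusive = exactly half above 15%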;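 also: 0% = DMSO wells and 100% = Ran loaded with GDP instead of GTP; wells of about 40 µL received 100 nL stock; the first replicate is given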
# LANA-H2A inh: blockers of LANA interaction with H2A/H2B – biochemical, FP readout, HTS, primary screen. Protein LANA1 (Human herpesvirus 8 type P (isolate GK18)), Q9QR71. cell-free LANA-H2A/H2B peptide, fluorescence polarization. inhibition, % (concentration not given with the values). 320,000 compounds, 0.6% hits. AID 2629, 2010; in the data active = inhibition mostly above about 10%, no sharp cut-off; inactive = mostly below about 6.7%;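 also: stock transfer was 7.5 nL into about 10 µL; 0% = median of vehicle wells and 100% = median of positive control wells; one replicate is shown; the record names a cut of 25% in any replicate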
# * hit, by the source's call; ? = inconclusive; . = no result given; & = joins results of further samples.
SMILES,Beta cell apopt,MLL AF4-AF9 inh,T cruzi inh,Bfl-1 A1 inh,Calb FLC,Vif TR-FRET,RanGTP-Impb inh,LANA-H2A inh
CCNc1cc(Cl)nc(SC)n1,-3,.,-11,1.3,28,14%,-0.1,0.3
Cc1ccc(CNS(=O)(=O)c2c(C)n(C)c(=O)n(C)c2=O)cc1,-5,-9.4,-3,-0.4,-6,29%,2.1,-3.6
CCOC(=O)C(=CNc1ccc(NC2=NCC(C)(C)S2)cc1)C(=O)OCC,.,-8.4,-14,-0.2,-7,18%,2.4,-1.4
C[C@@H](C(=O)NC1CCCC1)N1C(=O)N2CCc3c([nH]c4ccccc34)[C@@]2(C)C1=O,0,5.3,-4,0.4,-6,.,-3.4,2.4
COC(=O)COc1ccc(C2NC(=O)NC(c3ccccc3)=C2C(C)=O)cc1OC (stereo not drawn),-3,.,-11,0.6,3,19%,-2.2,-2.4
COc1ccc(N/C=C2\CCOC2=O)cc1,-5,.,-10,-0.4,-31,9%,-6.6,2.6
Cn1cnnc1SCC(=O)NCc1cccc(C(F)(F)F)c1,.,5.7,5,0.2,?,28%,-1.5,0.6
CCN(CC(=O)NCc1ccc(F)cc1)C(=O)c1cccnc1SC,-2,-0.9,-4,0.7,8,.,4.7,8.7
COC(=O)c1cn(CCOc2ccccc2F)c2ccccc12,-4,.,10,0.1,?,21%,-3.6,1.9
O=C1CCC([N+](=O)[O-])C(c2cccc3ccccc23)N1 (stereo not drawn),-6,0.2,-13,0.4,-3,?,0.2,1.7
O=C1CCN(S(=O)(=O)c2ccc(Cl)cc2)CCN1,1,-1.4,2,0.6,-9,9%,?,5.1
COCC(C)NC(=O)CCSc1nc(-c2ccc(OC)cc2)cc(C(F)(F)F)n1 (stereo not drawn),9,.,-4,-0.5,2,-10%,-0.8,2.7
CSc1nc2c(c(=O)[nH]1)C(c1ccncc1)C(C(=O)OC(C)C)=C(C)N2 (stereo not drawn),.,.,-8,0.6,-5,3%,0.1,7.0
O=C(NC1CCCCCC1)C1CCCN(S(=O)(=O)c2cnc[nH]2)C1 (stereo not drawn),-8,3.6,2,0.3,-2,1%,9.5,2.7
C[C@@H]1CN(C2CCN(Cc3nc(CC4CC4)no3)CC2)C[C@H](C)O1,-7,-0.1,0,-0.5,-4,.,-1.7,0.3
COc1ccc(/C=N/NC(=O)c2cccs2)c2ccccc12,7,6.8,7,-0.9,-9,.,?,-4.0
COc1cc(/C=C/C(=O)OCC(=O)Nc2ccc(Cl)cn2)ccc1O,2,0.7,.,-0.1,.,-1%,.,-1.4
COC(=O)c1c(NC(=O)c2c(OC)cccc2OC)sc2c1C(C(=O)OC)CC2 (stereo not drawn),7,-20,12,0.2,9,-2%,-0.1,-8.0
CCOC(=O)CC(NC(=O)c1ccco1)c1ccc(OC)cc1 (stereo not drawn),-3,.,-9,1.4,-22,6%,0.4,-3.4
CCN(CC(=O)Nc1cc(Cl)ccc1C)C(=O)c1nc2nc(C)cc(C)n2n1,2,4.2,.,0.2,.,13%,.,4.6
O=C(NCc1ccc2c(c1)OCO2)C1CCC(CNS(=O)(=O)c2ccccc2)CC1 (stereo not drawn),-5,.,-6,0.2,-12,9%,-1.3,0.0
CC(NC(=O)c1ccc(F)cc1)C(c1cccs1)N1CCN(C)CC1 (stereo not drawn),-4,.,-6,0.2,-1,2%,2.0,1.0
Cc1ccc(C)c(C(=O)COC(=O)CCCC(=O)Nc2cc(C(F)(F)F)ccc2Cl)c1,1,.,-14,-0.1,-4,11%,2.3,12*
CCCCN(C(=O)CSc1c(C)c(C)cc(C)c1C)c1c(N)n(CCC)c(=O)[nH]c1=O,-3,-16,.,-0.8,.,0%,.,-0.1
Cc1sc(NC(=O)C2CCCO2)c(C(N)=O)c1C (stereo not drawn),.,.,-2,-0.4,6,.,2.5,0.1
COc1cc(/C=C2/C(=N)N3C(=NC2=O)SN=C3S(C)(=O)=O)ccc1OS(=O)(=O)c1ccc(C)cc1,-4,0.5,4,0.8,36,.,11,-0.1
Cc1ccc(S(=O)(=O)Nc2c(C(=O)O)[nH]c3ccccc23)c(C)c1,0,2.5,-11,0.3,.,.,2.9,4.6
CCOC(=O)c1[nH]c2ccc(C(=O)OC)cc2c1C(=O)OCC,-3,-4.2,-6,0.2,-8,.,-1.8,1.3
O=C(NNC(=O)C12CC3CC(CC(Br)(C3)C1)C2)c1ccccc1F,11,-0.2,.,0.7,.,.,.,7.1
CCCCc1c(O)nc(SCC(=O)N2CCCCC2)[nH]c1=O,-2,2.3,-9,-0.5,-4,-3%,1.2,4.5
O=C(c1cc(-c2ccc(Br)cc2)on1)N1CCc2ccccc2C1,-7,2.2,-7,0.2,14,.,0.3,13
Cc1cc(C)n2nc(SCC3COc4ccccc4O3)nc2n1 (stereo not drawn),0,.,-1,-0.5,-14,8%,0.2,-2.8
N=c1sccn1CC(=O)Nc1cc(Cl)ccc1Oc1ccccc1,9,.,-5,-0.4,-2,2%,1.9,3.7
COc1cc(/C=C2\C(=N)N3N=C(S(=O)(=O)CC(C)C)SC3=NC2=O)ccc1OC(=O)c1ccco1,-2,.,-8,0.0,46,.,3.5,-8.6
CC1CCN(c2ccc3nnc(CCC(=O)Nc4cc(F)ccc4F)n3n2)CC1,10,-1.4,-14,2.1,-22,-3%,3.1,3.7
N#Cc1cccc(Cn2cc(C(F)(F)F)ccc2=O)c1,-2,-2.8,7,-0.1,-10,9%,1.5,-0.5
O=C(COC(=O)c1sc2ccccc2c1Cl)Nc1ncc(Cl)cc1Cl,-3,-9.5,-11,-0.1,-9,.,-1.7,4.0
C(=C\c1nc(N2CCCC2)c2ccccc2n1)/c1ccccc1,35,.,23,-0.9,-4,-4%,-3.0,-4.0
COCCN1C(=O)C(O)=C(C(=O)c2ccco2)C1c1cccc(Oc2ccccc2)c1 (stereo not drawn),-1,.,-1,0.5,99*,29%,1.1,1.7
O=C(Nc1cccc(NC(=O)C2C3CC4OC(=O)C2C4C3)c1)c1ccccc1 (stereo not drawn),-1,0.8,-8,-0.7,4,3%,0.8,1.3
COc1ccc(NS(=O)(=O)c2c(C(=O)N3CCCCCC3)c(C)n(C)c2C)cc1,-3,-3.0,12,-0.1,15,.,-1.9,1.4
Cc1cccc(C(=O)Oc2ccc(/C=N/NC(=O)c3cc(O)cc(O)c3)cc2)c1,-8,3.2,8,1.3,?,.,0.2,-1.7
COc1ccccc1OCC(=O)Nc1ccc(S(=O)(=O)Nc2onc(C)c2C)cc1,-4,-4.7,-6,0.0,1,.,-1.3,1.4
CN(Cc1ccccc1F)C(=O)c1ccc2c(=O)n3c(nc2c1)CCC3,3,-0.8,-6,-0.2,-9,1%,-1.5,-1.1
Cc1cccc(N2CCN(C(=O)Cc3ccc(-n4c(=O)[nH]c5ccsc5c4=O)cc3)CC2)c1C,10,-0.8,3,0.0,-1,-3%,-1.4,0.3
Cn1c(N)c(C(=O)CSc2nc(N)cc(N)n2)c(=O)n(C)c1=O,-1,-0.5,-12,-0.3,-5,12%,-0.1,11
CCCc1cc2c(=O)c(-c3ccccn3)coc2cc1OC,8,.,8,-1.1,18,0%,-3.8,-1.4
O=C1c2cccnc2C(=O)N1CNc1ccc(Cl)cc1,-7,-2.3,0,0.4,134*,-1%,-1.9,-0.7
CC(C)(C)c1ccc(-c2nc3[nH]c(=O)cc(NC(=O)c4ccco4)n3n2)cc1,-4,-2.0,-11,-1.2,0,.,0.1,3.7
COc1ccc2cc(-c3cc(C(=O)OCC(=O)NC4CCS(=O)(=O)C4)c4ccccc4n3)ccc2c1 (stereo not drawn),-1,.,-2,-4.5,45,-2%,24*,2.1
# Going on with the list.
SMILES,Beta cell apopt,MLL AF4-AF9 inh,T cruzi inh,Bfl-1 A1 inh,Calb FLC,Vif TR-FRET,RanGTP-Impb inh,LANA-H2A inh
Cc1c(C(c2ccc([N+](=O)[O-])cc2)c2c(C)n(C)n(-c3ccccc3)c2=O)c(=O)n(-c2ccccc2)n1C,-3,.,1,-0.2,20,15%,-1.5,-3.4
COc1cccc(OC)c1C(=O)NC(=O)NNc1cc(C(F)(F)F)cc(C)n1,-3,-2.8,2,0.1,9,4%,-0.7,-0.2
O=C(N1CCCCC1)C12CC3CC(CC(C3)C1)C2,-1,.,3,-1.9,-24,-1%,-2.4,3.3
O=C(Nc1ncc([N+](=O)[O-])s1)c1cccs1,52&56,5.4&2.2,-8&17,-12&-6.7,108*,.,1.5&1.6,-3.6&9.6
Cn1nnnc1SCC(=O)N1CCc2ccccc2C1,-4,.,.,0.6,.,8%,.,3.4
CN(CC(=O)Nc1ccccc1Cl)C(=O)CSc1nnc(-c2ccco2)n1C,-5,-5.6,.,1.0,.,4%,.,.
COc1ccc(CC(=O)Nc2cc(S(=O)(=O)N3CCOCC3)ccc2N2CCCC2)cc1OC,0,2.3,.,-0.7,.,-3%,.,-1.6
O=C(O)C1=CC[C@@H](c2ccc(Cl)cc2)N(S(=O)(=O)c2ccc(Cl)cc2)[C@H]1c1ccccc1,1,-6.0,.,-0.8,.,.,.,1.4
Cc1nnc(SCc2ccc(Cl)cc2Cl)[nH]c1=O,-1,.,1,0.7,-2,-2%,-0.5,-1.0
COCCN(CC1CCCN(C2Cc3ccccc3C2)C1)C(=O)CCC(F)(F)F (stereo not drawn),.,-7.2,52,0.2,-1,.,3.1,-2.1
Cc1ccc(-c2cc(C(=O)NCc3cccnc3)no2)cc1,1,.,-6,0.4,4,26%,0.6,2.8
CCOc1ccc(-c2c(C(=O)N/N=C(\C)c3cccnc3)nnn2-c2nonc2N)cc1,0,-5.9,2,0.7,1,.,2.5,0.5
COc1ccc(C2C(C(=O)NCCN3CCOCC3)c3ccccc3C(=O)N2C2CCCCC2)cc1 (stereo not drawn),8,.,-22,0.2,-6,20%,-2.5,0.2
Cc1cc(NC(=O)COC(=O)c2cc(S(=O)(=O)N3CCOCC3)ccc2N2CCCCC2)no1,-4,.,1,1.4,-4,3%,4.2,-2.2
COc1ccccc1NC(=S)N(Cc1ccccn1)Cc1ccccc1Cl,-7,9.0,8,-0.4,3,6%,-0.8,-0.5
COc1ccccc1C(=O)OCCNC(=O)Cn1cnc2c1c(=O)n(C)c(=O)n2C,-4,-0.3,-9,-1.0,-9,12%,0.1,11
CCOc1cc(-c2noc(-c3ccncc3)n2)cc(Br)c1OC,1,.,-3,-0.1,17,5%,-2.4,0.5

# From PubChem BioAssay
